TRPML1 agonist = human mucolipin-1 channel agonism. TRPML1-expressing cells, Ca2+ dye fluorescence, FDSS; host cell line not named in the record; reference of the full effect not given here. activation, % (no concentration beside the values). hit rate 0.12% among 410,000; in the data active = activation above about 50%; inconclusive = about 30% to 50%; inactive = below about 30%; further: 0% is about no effect; the text of the record puts the active cut at 80%
Target sequence (Q9GZU1 whole entry, looked up): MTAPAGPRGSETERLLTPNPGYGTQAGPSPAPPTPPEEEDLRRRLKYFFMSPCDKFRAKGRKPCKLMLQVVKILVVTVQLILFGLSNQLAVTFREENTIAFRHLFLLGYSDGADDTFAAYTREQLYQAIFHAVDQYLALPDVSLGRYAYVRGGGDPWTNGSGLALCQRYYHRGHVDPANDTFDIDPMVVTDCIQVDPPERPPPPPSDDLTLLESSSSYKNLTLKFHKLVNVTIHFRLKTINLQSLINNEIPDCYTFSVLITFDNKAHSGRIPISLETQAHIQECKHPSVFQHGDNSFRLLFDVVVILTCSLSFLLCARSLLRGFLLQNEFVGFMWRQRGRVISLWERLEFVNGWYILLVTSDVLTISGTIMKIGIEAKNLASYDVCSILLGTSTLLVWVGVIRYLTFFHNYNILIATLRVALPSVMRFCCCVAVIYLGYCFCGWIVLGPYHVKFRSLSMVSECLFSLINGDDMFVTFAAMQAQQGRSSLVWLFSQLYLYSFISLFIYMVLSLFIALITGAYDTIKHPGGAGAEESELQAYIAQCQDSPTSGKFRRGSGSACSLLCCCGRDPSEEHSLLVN
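Cells: TRPML1-DL, 1X Tet inducer, ~16 h at 37 degrees C/5% CO2. Dye: ABD Ca8 no-wash + quencher, 45-90 min RT. Read: 10 s baseline, compound add, 110 s agonist phase; 54-4 EC80 (4uM final), 110 s antagonist phase.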
D2 potentiator = human D2 receptor positive allosteric modulation; P14416; DiscoveRx D2 beta-arrestin cells, luminescence, 90 min; 100% = 57 uM dopamine signal; potentiation, % (test concentration not listed); hit rate 0.23% among 360,000; active = potentiation of 50% or more; inconclusive = 30% to 50%; inactive = 30% or less;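 further: compound concentration not given in the record; tested on top of an EC20 dose of dopamine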
Target sequence (P14416 whole entry, looked up): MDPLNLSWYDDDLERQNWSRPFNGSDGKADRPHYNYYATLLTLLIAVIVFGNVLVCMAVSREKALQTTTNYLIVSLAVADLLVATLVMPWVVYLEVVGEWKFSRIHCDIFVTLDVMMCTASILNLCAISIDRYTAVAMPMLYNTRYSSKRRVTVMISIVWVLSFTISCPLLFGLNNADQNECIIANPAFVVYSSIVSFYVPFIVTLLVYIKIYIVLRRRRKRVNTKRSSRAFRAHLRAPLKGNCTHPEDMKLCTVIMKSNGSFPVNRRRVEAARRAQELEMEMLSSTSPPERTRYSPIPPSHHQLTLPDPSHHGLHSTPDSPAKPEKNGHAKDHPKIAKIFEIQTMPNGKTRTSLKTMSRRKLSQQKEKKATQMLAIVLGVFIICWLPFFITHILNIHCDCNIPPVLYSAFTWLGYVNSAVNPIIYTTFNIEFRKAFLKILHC
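D2 cells co-treated with compound plus 50 nM dopamine (EC20) for 90 min at 37 deg C to detect potentiation. Beta-arrestin recruitment was read as enzyme-fragment luminescence after 1 h at ambient temperature. Full response was set by 57 uM dopamine.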
Six1-Eya2 blk = blocks human Six1 binding to Eya2. Q15475+O00167. AlphaScreen GST-Six1/His-Eya2 binding, biochemical; hits give low values; control for the full effect not named in the record. activity change, % (concentration not given with the values). hit rate 0.56% among 360,000. AID 651725; in the data active = activity change below about -65%; inconclusive = about -30% to -65%; inactive = above about -30%; further: on the % scale 0 is the no-effect control and ±100 the full control effect
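AlphaScreen with GST-Six1 and His-Eya2 (5X mix: 250 nM and 500 nM), glutathione donor and nickel acceptor beads; buffer 50 mM Tris pH 8.0, 300 mM NaCl, 1 mM TCEP; 1 h at 37 C in the dark.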
CtBP-E1A blk = blocks the CtBP interaction with E1A; AlphaScreen GST-E1A/His-CtBP binding, 1536-well; hits give low values; control for the full effect not named in the record; activity change, % (no concentration beside the values); hit rate 0.49% among 340,000; AID 651724; in the data active means activity change below about -65%; inconclusive means about -30% to -65%; inactive means above about -30%; further: on the % scale 0 is the no-effect control and ±100 the full control effect; compound concentration not given in the record
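Protein mix (5X: 125 nM each GST-E1A, His-CtBP) was incubated with pinned compound 2 h at 37 deg C in dark, in 50 mM Tris pH 8.0 buffer with 300 mM NaCl. Glutathione donor and nickel acceptor beads followed; AlphaScreen signal read after 1 h.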
PINK1 expr mod = changes PINK1 expression. PINK1 immunofluorescence, high-content cytometry, 24 h. Potency, µM (series often up to 76.6 µM), for the others: at the highest dose activation (PINK1 increase), hits mostly activators. hit rate 0.2% among 410,000; active = well fitted activation curve with a large enough effect; inconclusive = small, poorly fitted or top-dose-only effect; inactive = flat fitted curve, though single readings scatter; cell line not stated here;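 further: potency means the concentration at half of the fitted maximal effect; % of control where 0% means no effect; nearly all actives have a fitted effect of over 65% in size; a mitochondrial uncoupler was the plate control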
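Decision-based qHTS: stable cells, 24 h exposure to five compound concentrations, CCCP as control. Fixed cells stained for PINK1 plus nuclear, mitochondrial and cell markers, cytometer read.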
D2 agonist = agonists of human D2 dopamine receptor (beta-arrestin) | hit rate 0.084% among 360,000 | activation, % (concentration not given with the values) | P14416 | DiscoveRx PathHunter D2 beta-arrestin, luminescence, 90 min; 100% = 57 uM dopamine signal; in the data active = activation above about 40%; inconclusive = about 15% to 40%; inactive = below about 15%; further: compound concentration not given in the record; the text of the record calls up to 30% inactive
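Agonist mode: compounds alone added to overnight-plated D2 PathHunter cells for 90 min at 37 C, with 57 uM final dopamine (EC100) defining full response. Beta-arrestin recruitment detected by chemiluminescent reagent, read after 1 h at ambient temperature.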
Numbers without * were called inactive; ? = inconclusive; / = not tested or not shown; & = joins results of further samples; [ ] = dose if it differs, or a comment.

cpd	molecule	TRPML1 agonist	D2 potentiator	Six1-Eya2 blk
1	O=C(NNC(=O)c1cnccn1)c1cccc([N+](=O)[O-])c1	0.1	9.8	-12.3
2	CCc1nc(SCC(=O)Nc2ccccc2OC)n[nH]1	0.1	-9.8	10.9
3	O=C(c1cccs1)N1CCN(S(=O)(=O)c2cccc(Cl)c2Cl)CC1	-0.4	-6.8	4.3
4	COc1cccc(-c2nc(CS(=O)(=O)CC(=O)NCCN3CCOCC3)c(C)o2)c1	-0.2	-6.1	7.6
5	CC(C)c1nc(SCC(=O)c2c[nH]c3ccccc23)n[nH]1	0.5	0.7	2.4
6	CC(=O)c1c(C)[nH]c(C(=O)COc2ccc(C#N)cc2)c1C	-1.0	6.6	-5.3
7	O=C(c1cccc(S(=O)(=O)N2CCCC2)c1)c1nnc(-c2ccncc2)o1	0.4	-7.3	2.6
8	COc1cccc(-c2noc(-c3ccoc3C)n2)c1	-0.5	7.2	20.2
9	C/C(=N\Nc1cc(N2CCOCC2)ncn1)c1cccc([N+](=O)[O-])c1	0.8	-3.3	-4.8
10	O=C(COC(=O)c1cc(=O)[nH]c(=O)[nH]1)Nc1cccc(Cl)c1	-0.5	-1.6	11.7
11	Cc1cccc(C)c1-n1nnnc1C1c2ccccc2C(=O)N1CCc1ccc(O)cc1 (stereo unspecified)	-1.0	/	0.3
12	Cc1cc(C(=O)CN2C(=O)C(=O)N(C3CCCC3)C2=O)c(C)n1CCc1ccccc1	0.2	9.6	-18.1

cpd	CtBP-E1A blk	PINK1 expr mod	D2 agonist
1	-17.2	-0.9%[38.3 µM]	4.8
2	-5.3	-0.2%	-0.8
3	-1.4	1.1%	-3.3
4	25.7	-0.4%	-4.1
5	3.2	-0.3%	2.4
6	2.9	8.8%	1.2
7	4.7	2.0%[38.3 µM]	-0.5
8	22.9	2.2%	4.0
9	/	3.2%	1.2
10	5.7	0.7%	-2.6
11	0.0	0.5%	/
12	-1.5	0.0%	0.4

Part of the list above, reformatted.
Fields – TRPML1 agonist, D2 potentiator, Six1-Eya2 blk, CtBP-E1A blk, PINK1 expr mod, D2 agonist
[2] CCc1nc(SCC(=O)Nc2ccccc2OC)n[nH]1
→ 0.1, -9.8, 10.9, -5.3, -0.2%, -0.8
[3] O=C(c1cccs1)N1CCN(S(=O)(=O)c2cccc(Cl)c2Cl)CC1
→ -0.4, -6.8, 4.3, -1.4, 1.1%, -3.3

Further results:
cpd	molecule	TRPML1 agonist	D2 potentiator	Six1-Eya2 blk
13	COc1cc(C=O)ccc1Oc1cnccn1	-0.2	2.6	18.4
14	CCOC(=O)C1CCN(C(=O)c2ccc3snnc3c2)CC1	0.1	-4.8	6.2
15	COc1ccc(-n2c(=O)c3ccccc3n(Cc3cccc(C)c3)c2=O)cc1OC	-0.2	-2.6	-0.9
16	CCOC(=O)C1C(=O)NC(C(=O)OCC)(C(=O)OCC)C1CC (stereo unspecified)	-0.4	-2.1	2.8
17	COc1cccc(COC(=O)CSCC(=O)Nc2ccc(C)cc2)c1OC	-0.1	-14.3	12.1
18	Fc1ccc(F)c(CN2CCN(c3ncccn3)CC2)c1	0.2	63.9*	1.9
19	CC1SC(=NC(=O)c2ccco2)NC1=O (stereo unspecified)	0.5	0.2	-8.6
20	COc1ccc(/C(N)=N/OC(=O)c2ccc(C)c([N+](=O)[O-])c2)cc1	-1.0	132.0*	-2.7
21	CSc1ncccc1C(=O)N1CCC(C)(C(=O)O)C1 (stereo unspecified)	0.1	-9.1	-6.2
22	Cc1cccc(C)c1NC(=O)CSc1nnc(-c2ccccc2)n1Cc1ccc2c(c1)OCO2	0.3	-4.0	-4.9
23	Cn1c(Nc2ccc(Cl)cc2)cc(=O)n(C)c1=O	0.4&0.2	2.0	3.9
24	FC(F)(F)c1ccc(NCCc2ccccc2)nc1	-0.3	1.2	26.5

cpd	CtBP-E1A blk	PINK1 expr mod	D2 agonist
13	0.0	1.9%	0.5
14	9.7	1.1%	-1.5
15	-5.3	3.7%	-3.1
16	7.9	3.2%	-1.5
17	?	1.0%	-0.6
18	4.9	7.9%[38.3 µM]	78.3*
19	-8.9	2.5%[38.3 µM]	-3.2
20	-0.3	2.8%	?
21	-2.2	0.5%	-5.8
22	-1.4	-2.7%	-2.3
23	-0.5	-1.4%&0.1%	-0.5
24	22.9	11.5%	1.2

cpd	molecule	TRPML1 agonist	D2 potentiator	Six1-Eya2 blk
25	CCOC(=O)c1c(C)n2c3c(cc(C)cc13)CCC2	2.4	-11.2	-1.3
26	COc1ccc(/C=N/Nc2nnc(-c3ccccc3)c(=O)[nH]2)cc1	1.6	-6.6	-5.3
27	O=C(CSc1nnc(-c2c[nH]c3ccccc23)o1)N1CCCCC1	-0.2	10.8	-18.1
28	O=C(CNc1ccccc1N1CCCC1=O)Nc1cc(C(F)(F)F)ccc1-n1cncn1	0.0	-4.0	1.2
29	CC1C(c2ccccc2)OCCN1C(=S)Nc1ccc(S(=O)(=O)N2CCCCC2)cc1 (stereo unspecified)	-0.2	-11.1	-12.0
30	CCn1cc(Br)c(C(=O)Nc2ccc(OC)cc2)n1	-0.3	-5.2	1.0
31	CCN(CC(=O)NCc1ccc(Cl)cc1)C(=O)c1ccc(C#N)cc1	1.0	1.7	3.4
32	Cc1ccc(-c2csc3ncnc(NCCC(=O)O)c23)cc1C	-0.2	-1.2	0.7
33	O=C1CCC(=O)N1OCCCOc1ccccc1	0.0	-15.1	1.4
34	COc1ccc2nc(SCC(=O)NCc3ccc(S(N)(=O)=O)cc3)[nH]c2c1	-0.6	-3.9	-14.1
35	N#Cc1c(-c2ccccc2)[nH]c(=O)[nH]c1=O	1.9	-1.1	9.9
36	Cc1ccccc1CSc1nnc2ccc(-c3ccncc3)nn12	/	2.8	-3.0

cpd	CtBP-E1A blk	PINK1 expr mod	D2 agonist
25	4.3	10.6%	0.3
26	-13.5	1.5%	1.8
27	-29.7	/	-2.9
28	-18.1	-2.4%	0.5
29	0.4	4.3%	-1.1
30	8.0	0.2%[38.3 µM]	0.7
31	2.8	-0.1%	-1.9
32	3.1	-0.2%	0.9
33	-4.1	/	0.4
34	0.0	2.8%	0.2
35	-10.3	1.0%	-4.4
36	-1.3	-0.5%	-2.7

An excerpt from above in order of their number in CtBP-E1A blk, falling:
| no. | mol | CtBP-E1A blk |
| --- | --- | --- |
| 30 | CCn1cc(Br)c(C(=O)Nc2ccc(OC)cc2)n1 | 8.0 |
| 25 | CCOC(=O)c1c(C)n2c3c(cc(C)cc13)CCC2 | 4.3 |
| 35 | N#Cc1c(-c2ccccc2)[nH]c(=O)[nH]c1=O | -10.3 |
| 26 | COc1ccc(/C=N/Nc2nnc(-c3ccccc3)c(=O)[nH]2)cc1 | -13.5 |

Remaining list, next part
cpd	molecule	TRPML1 agonist	D2 potentiator	Six1-Eya2 blk
37	COc1cccc(NC(=O)Nc2ccc(C)c(Cl)c2)c1	0.9	9.6	3.9
38	COc1cccc(C(=O)C2CCCN(Cc3c(C)n(C)n(-c4ccccc4)c3=O)C2)c1 (stereo unspecified)	0.0	-14.6	8.7
39	COc1ccc(C(=O)CNc2ccccc2C#N)cc1	1.1	-6.4	6.6
40	O=C(COc1cc2oc(=O)c3c(c2cc1Cl)CCC3)N1C[C@H]2C[C@@H](C1)c1cccc(=O)n1C2	/	-32.5	19.1
41	O=C(Cc1csc(-c2ccccc2)n1)NCc1cccs1	1.3	4.9	-0.6
42	CC(c1ccccc1)n1c(-c2ccc(Cl)cc2)n[nH]c1=S (stereo unspecified)	-0.7	-6.2	-3.7
43	COc1cccc(C(=O)NCc2nnc(SCC(=O)Nc3nccs3)n2-c2ccccc2)c1	0.1	-2.1	-4.7
44	CC(C)(C)c1ccc(S(=O)(=O)N2CCC(NC(=O)c3ccco3)CC2)cc1	-2.0	-2.6	-20.2
45	Cc1nnc(SCc2cc(=O)[nH]c(N3CCN(Cc4ccccc4)CC3)n2)s1	-0.2	-17.7	8.5
46	Cc1cc(C)nc(SCC(=O)c2ccc(F)cc2F)n1	1.1	-0.2	4.7
47	COC(=O)c1cc(=O)n(-c2c(Cl)cc(C(F)(F)F)cc2Cl)[nH]1	0.1	-2.3	4.7
48	Cc1ccc(OCCCCNC(C)c2ccccc2)c(C)c1 (stereo unspecified)	0.6	-22.3	-3.2

cpd	CtBP-E1A blk	PINK1 expr mod	D2 agonist
37	6.0	0.6%	-3.7
38	5.3	0.2%	-1.8
39	7.4	6.9%	-4.2
40	0.0	-0.9%	-6.1
41	0.5	2.5%	3.2
42	1.8	1.0%	12.8
43	-3.5	1.6%	3.3
44	-0.5	1.1%	-3.1
45	-5.2	-1.5%	-0.3
46	5.7	7.6%	-0.6
47	2.8	1.4%	-4.4
48	-5.8	?	4.8

cpd	molecule	TRPML1 agonist	D2 potentiator	Six1-Eya2 blk
49	c1ccc(Nc2ccc3c4c(cccc24)CC3)cc1	-0.9	-0.2	-1.5
50	COc1ccccc1N1CCN(CC(=O)Nc2ccc(Cl)c(C(F)(F)F)c2)CC1	0.7	-19.2	-5.4
51	O=C(NCCN1CCNCC1)c1ccccc1O	3.3	-1.3	9.3
52	O=C(Nc1cc(Cl)ccc1Oc1ccccc1)C1=COCCO1	1.8	-21.6	3.7
53	O=C1NC[C@H](Cc2ccc(O)cc2)N(C[C@@H]2CCCN2C[C@H](Cc2ccc(O)cc2)N2C[C@H](Cc3ccccc3)N(CCc3ccccc3)C(=O)C2=O)C1=O	0.1	/	-14.9
54	CSCC[C@H](NC(=O)[C@@H]1Cc2ccccc2CN1)C(=O)NC1CCCCC1	-0.4	-18.7	1.6
55	Clc1cccc(-c2ccnc3nc(-n4cccc4)nn23)c1	1.5	1.9	-3.6
56	Cc1ccc(Sc2sc(=O)n(C)c2S(=O)(=O)c2ccc(C)cc2)cc1	-0.2	-10.5	-1.8
57	Cc1cc(N2CC(C(=O)Nc3nccs3)CC2=O)ccc1C(C)C (stereo unspecified)	-0.6	-24.1	4.0

cpd	CtBP-E1A blk	PINK1 expr mod	D2 agonist
49	6.6	3.8%	0.9
50	2.6	2.2%[38.3 µM]	2.8
51	/	-1.5%	-0.5
52	3.6	5.1%	-5.5
53	-0.6	3.8%	/
54	-14.0	-1.1%	-2.9
55	-7.5	10.6%[38.3 µM]	-2.8
56	8.4	8.7%	-1.1
57	-10.9	1.4%	-0.4

Source: PubChem BioAssay (National Center for Advancing Translational Sciences (NCATS))
